Compound activity: PubChem BioAssay, National Center for Advancing Translational Sciences (NCATS)
VDR inhibitor: Inhibitors of the vitamin D receptor (VDR): qHTS; Vitamin D3 receptor (Homo sapiens), P11473; VDR-SRC2-3 peptide fluorescence polarization, 2 h; Potency, µM, inactives show max response, negative = inhibition, usual class: inhibitors; 400,000 tested, 0.93% active; AID 504847, 2011; active = well fitted inhibition curve with a large enough effect; inconclusive = small, poorly fitted or top-dose-only effect, or another doubt; inactive = no such curve, though single readings can be large or run the other way; note: series mostly up to about 120 µM
Target sequence (P11473 whole entry, looked up): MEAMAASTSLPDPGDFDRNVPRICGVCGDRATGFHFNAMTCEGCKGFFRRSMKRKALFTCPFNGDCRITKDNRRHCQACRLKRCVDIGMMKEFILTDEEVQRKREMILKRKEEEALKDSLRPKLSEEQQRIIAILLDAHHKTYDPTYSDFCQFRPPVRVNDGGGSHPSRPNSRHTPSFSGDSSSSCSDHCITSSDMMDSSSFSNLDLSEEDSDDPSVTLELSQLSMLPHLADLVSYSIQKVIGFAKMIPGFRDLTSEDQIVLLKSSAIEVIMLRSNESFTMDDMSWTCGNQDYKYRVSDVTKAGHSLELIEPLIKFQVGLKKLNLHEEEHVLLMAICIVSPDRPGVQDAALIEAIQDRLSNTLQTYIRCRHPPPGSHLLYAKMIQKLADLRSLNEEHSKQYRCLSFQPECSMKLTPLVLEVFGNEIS
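Inhibition of the VDR/SRC2-3 peptide interaction is quantified by fluorescence polarization. Compounds (23 nl, pintool) incubate with the reagents for 2 hours at ambient room temperature.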
Active calls of the source: *; ? = inconclusive; & = joins results of further samples. % is set by controls: 0 for no effect and ±100 for the full control effect; potency is the fitted concentration of half-maximal effect. The list is partial. The share of hits here may be higher or lower than overall.

SMILES | VDR inhibitor
O=C(NCCN1CCOCC1)c1cccc(S(=O)(=O)N(Cc2ccccc2)c2ccccc2)c1 | -6%
Cc1ccc(S(=O)(=O)CC(O)COc2ccc(F)cc2Cl)c(C)c1 (stereo unspecified) | -4%
COc1ccc(CNC(=O)Cn2ccc3cc(S(=O)(=O)N4CCCC4)ccc32)c(OC)c1 | 14%
O=C1NCC(COCc2ccccc2)O1 (stereo unspecified) | 1%
COCCNC(=O)c1ccc(Cn2c(SCC(=O)NCC3CCCO3)nc3ccc(Br)cc3c2=O)cc1 (stereo unspecified) | 4%
CCC(=O)c1ccc(OCC(=O)OCC(=O)N2CCc3ccccc32)cc1 | 0%
COn1c(SCC(=O)N(C)C)nc2ccccc2c1=O | -2%
Cc1ccc(NC(=O)Cc2c(C(=O)O)n(C)c3ccccc23)cc1F | -17%
COc1cc(C2/C(=C(\O)c3ccc4c(c3)CC(C)O4)C(=O)C(=O)N2Cc2ccco2)ccc1O (stereo unspecified) | 2%
CCC1C(=O)N=C(SCC(=O)Nc2ccc(Br)cn2)NC1=O (stereo unspecified) | ?
COc1ccc(CCNC(=O)CN2C(=O)NC(c3ccccc3)(c3ccccc3)C2=O)cc1 | -9%
CSc1ccc(/C=N\NC(=O)CC(=O)NC(C)C)cc1 | 2%
O=C(CCc1ccccc1)NNC(=O)Cc1ccc(Cl)cc1 | 2%
COc1ccc(C(=O)NCCn2cc(SCC(=O)Nc3ccc(F)cc3)c3ccccc32)cc1 | 14%
C/C(=N\OC(=O)NC(C)C)c1sc(-c2ccc(Cl)cc2)nc1C | 17%
C=CCOc1cccc(/C=N/NC(=O)C(=O)NCc2ccco2)c1 | -6%
Cc1ccc(C(=O)COc2ccccc2N2C(=O)c3ccccc3C2=O)cc1 | -10%
Cn1c(CCNC(=O)c2ccco2)nc2cc(NC(=O)c3ccccc3Cl)ccc21 | -1%
CCOC(=O)c1c(N2C(=O)Nc3ccccc3N2O)sc2c1CCCCC2 | -4%
Cc1cc2ncn(-c3ncnc4sc5c(c34)CCCC5)c2cc1C | 2%
CC(C(=O)Nc1ncn[nH]1)N1C(=O)c2ccccc2C1=O (stereo unspecified) | 7%
CC(=O)Nc1ccc(S(=O)(=O)NCCC(=O)Nc2cc(C)ccn2)cc1 | 6%
Cc1nnc(SCC(=O)Nc2cccc(Br)c2)s1 | 12%
COc1ccc2c(CC(=O)OCC(=O)Nc3ccc(C)cc3)coc2c1 | -1%
O=C(O)/C=C/C(=O)Nc1ccc(Cl)cc1C(=O)c1ccccc1 | -9%
CCN(CC)CCCC1(CN)OCCc2ccccc21 (stereo unspecified) | 5%
CNC(=O)NNC(=O)c1csc(Cc2c(Cl)sc3ccc(Cl)cc23)n1 | -17%
O=[N+]([O-])c1ccccc1OCCCn1cnc2ccccc21 | -14%
Clc1ncc2[nH]cnc2n1 | 19%
CCCNc1cc(C)c(C#N)c2nc3ccccc3n12 | 8%
CSc1nc2c(c(=O)[nH]1)C(c1cccc(F)c1F)CC(=O)N2 (stereo unspecified) | 17%
N#Cc1c(NC(=O)c2cccc(S(=O)(=O)Nc3ccc(C(=O)O)cc3)c2)sc2c1CCCC2 | -7%
CCN(C[C@H]1N[C@@](Cc2ccccc2)(C(=O)OC)[C@H]2C(=O)N(C)C(=O)[C@@H]12)C(=O)Nc1ccc(C)cc1 | 11%
O=C(NNS(=O)(=O)c1ccc(Br)cc1)c1ccncc1 | -1%
CC(C)[C@H](NC(=O)N1CCn2c1nc1ccccc12)C(=O)NCC1CCCO1 (stereo partly specified) | 13%
COc1cc(C(=O)NCc2cc(C)nc3ccccc23)cc(OC)c1OC | -18%

5 entries from above, with the structure last.
VDR inhibitor | SMILES
8% | CCCNc1cc(C)c(C#N)c2nc3ccccc3n12
17% | CSc1nc2c(c(=O)[nH]1)C(c1cccc(F)c1F)CC(=O)N2 (stereo unspecified)
-7% | N#Cc1c(NC(=O)c2cccc(S(=O)(=O)Nc3ccc(C(=O)O)cc3)c2)sc2c1CCCC2
11% | CCN(C[C@H]1N[C@@](Cc2ccccc2)(C(=O)OC)[C@H]2C(=O)N(C)C(=O)[C@@H]12)C(=O)Nc1ccc(C)cc1
-1% | O=C(NNS(=O)(=O)c1ccc(Br)cc1)c1ccncc1

Carrying on.
SMILES | VDR inhibitor
O=C(Nc1ccc(O)c(-c2nc3ccccc3s2)c1)c1cccs1 | 7%
N#C/C(=C\c1cn[nH]c1-c1ccccc1)C(=O)NC1CCCCCC1 | -6%
CC(=O)c1sc2nc(-c3ccc(C)cc3)c3c(c2c1N)CCCC3 | -17%
CC(=O)Nc1ccc(S(=O)(=O)N2CCN=C2SCc2cccc(C)c2)cc1 | 15%
Cc1occc1C(=O)NN1C(=O)C2C3CCC(O3)C2C1=O (stereo unspecified) | 9%
NC(=O)CC(NC(=O)c1ccc(Br)cc1)c1ccc(NC2CCCCC2)c([N+](=O)[O-])c1 (stereo unspecified) | -8%
CCn1c(CC(=O)Nc2ccccc2C)nnc1SCC(=O)NC1=NCCS1 | 6%
CCN(CCNS(=O)(=O)c1ccc2c(c1)oc(=O)n2C)c1ccccc1 | 0%
O=C(CCN1CCOCC1)NNC(=O)Nc1cccc(Cl)c1 | 7%
Clc1ccc(-c2ccc(C=Nc3ccc(N4CCOCC4)cc3)o2)cc1 | -6%
CC12CN3CC(C)(CN(C1)C3c1c[nH]c3ccccc13)C2=O (stereo unspecified) | -6%
CCCCC(=O)Nc1c(-c2ccc(OC)c(OC)c2)c(=O)c2ccccc2n1C | -1%
CCOC(=O)c1c(O)c2ccccc2n(C)c1=O | -1%
O=C(COC(=O)c1ccccc1F)Nc1ccc(S(=O)(=O)N2CCOCC2)cc1 | 5%
COc1ccc(C(=O)NCC(C)NC(=O)c2ccc(OC)cc2)cc1 (stereo unspecified) | ?
O=C(CSc1nc2c([nH]c3ccccc32)c(=O)n1-c1ccccc1)c1ccccc1 | -12%
CCc1c(CN2CCN(c3cccc(C)c3)C(C)C2)csc1C (stereo unspecified) | -2%
O=c1cc(-c2ccccc2)nc2nc(CCc3ccccc3)[nH]n12 | 0%
O=S(=O)(c1cnc(Cl)c(Cl)c1)N1CCc2ccccc21 | -1%
CCOc1ccc(CNC(=O)c2ccc3nc(C(C)C)oc3c2)cc1 | 3%
O=C(NCc1ccccn1)c1cc2c(ccc3ccccc32)oc1=O | -8%
Cc1ccc(S(=O)(=O)N/N=c2\sc3ccccc3n2C)cc1 | 8%
COc1ccc(C(=O)Nc2cnc3ccccn3c2=O)cc1 | -12%&6%
Cc1c(C(=O)N2CCCc3ccccc32)oc2ccccc12 | -7%
CC1CCCCC1NS(=O)(=O)c1ccc2c(c1)CC(=O)N2C (stereo unspecified) | -9%
COc1ccc(C(=O)N2CCNC(=O)C2CC(=O)Nc2ccc(C)cc2)cc1 (stereo unspecified) | -7%
CC(C)CCOc1cccc(OCC(=O)N(C)C2CCS(=O)(=O)C2)c1 (stereo unspecified) | 24%
O=C(O)C1CCCCC1C(=O)NCCc1c[nH]c2ccccc12 (stereo unspecified) | 3%
Cc1ccc(Cn2c(C(=O)Nc3cccc(Cl)c3)cc3sccc32)cc1 | 17%
O=C(O)C1CCCCC1C(=O)Nc1cc(C(F)(F)F)ccc1Cl (stereo unspecified) | 1%
Cc1ccc2c(c1)N1C(=O)c3ccccc3C1C1=C(CC(C)(C)CC1=O)N2 (stereo unspecified) | 9%
CC1CCCN(CCCNC(=O)Cn2ncc3c([nH]c4ccccc43)c2=O)C1 (stereo unspecified) | 4%
CC(=O)C[C@H](O)CC(=O)[C@@H]1OC(=O)[C@@H](C)C/C=C\Cc2ccccc21 | -3%
O=C(Nc1cccc2cccnc12)c1ccc(Br)cc1Br | -12%
COc1ccc(-c2nc(CCNC(=O)c3ccccc3)cs2)cc1OC | 1%
COc1ccc(S(=O)(=O)N2CCOCC2)cc1N=Nc1sc(N)nc1-c1ccccc1 | -21%
Cc1ccc(NC2=NC(c3ccc(F)cc3)n3c(nc(C)cc3=O)N2)c(C)c1 (stereo unspecified) | -3%
CC(NC(=O)c1ccco1)C(=O)OCc1cccc(Cl)c1 (stereo unspecified) | -7%
CCc1ccc2oc(C(=O)NCC(c3ccc(OC)cc3)N3CCCCC3)c(C)c2c1 (stereo unspecified) | -9%&-1%
COC(=O)c1c(NC(=O)CSc2nnnn2-c2ccc3c(c2)OCO3)sc(C)c1C | 10%
Cc1nnc(NC(=O)CSc2ccc([N+](=O)[O-])cn2)s1 | -3%
COc1ccc(/C=N\NC(=O)c2ccccc2Br)cc1COc1c(F)c(F)cc(F)c1F | -17%
CC(CCc1ccccc1)NC(=O)Cn1ncc2c3ccccc3n(Cc3ccc(F)cc3)c2c1=O (stereo unspecified) | 11%
COc1cccc(CCc2nnc(N)s2)c1 | -7%
CC(=O)Nc1cc(NC(=O)CCCC(=O)O)ccc1Cl | 7%
O=C1/C(=C/c2cccc(Br)c2)SC(=S)N1/N=C/c1cc([N+](=O)[O-])ccc1O | ?
COc1ccc(NC(=O)C(C)N2C(=O)c3ccccc3C2=O)cc1S(=O)(=O)N1CCOCC1 (stereo unspecified) | 8%
CNC(=O)C1CCC(Cn2c(=O)c3sccc3n(Cc3cc(C)ccc3C)c2=O)CC1 (stereo unspecified) | 3%
O=C(c1c(F)cccc1F)N(Cc1ccccn1)C1CC1 | 2%
CCOC(=O)c1[nH]c2ccc(OC)cc2c1NS(=O)(=O)c1ccc(Cl)s1 | -20%
CC(c1ccco1)N(C(=O)COc1ccccc1[N+](=O)[O-])c1ccccn1 (stereo unspecified) | -7%
COCCN1Cc2cccc(C(=O)Nc3cccc(C)c3C)c2C1=O | 5%
COc1ccc(OC)c(Nc2nc3nonc3nc2N2CCCC(C)C2)c1 (stereo unspecified) | -11%
CC1CCCCC1NC(=O)CN1C(=O)NC(C)(c2cc(F)ccc2F)C1=O (stereo unspecified) | 3%
CCCCOc1ccc(CSc2nnc(C)n2N)cc1[N+](=O)[O-] | -12%
O=C1/C(=C/c2ccco2)SC(=S)N1CCC(=O)N1CCCCC1CCO (stereo unspecified) | -21%
COc1ccc(NC(=O)C2CC(=O)n3ncnc3N2)cc1 (stereo unspecified) | -3%
CCN(CC(=O)Nc1ccc(NC(C)=O)cc1)C(=O)c1ccc2c(c1)S(=O)(=O)N=C1CCCCCN12 | ?
O=C(c1ccc(S(=O)(=O)N2CCCCCC2)cc1)N1CCN(c2ccccn2)CC1 | 1%
CN1C(=O)C2(Oc3ccccc3C3CC(c4ccccc4)=NN32)c2ccccc21 (stereo unspecified) | 6%

Sorted by the number under VDR inhibitor (descending): some entries from above
Structure	VDR inhibitor
C/C(=N\OC(=O)NC(C)C)c1sc(-c2ccc(Cl)cc2)nc1C	17%
COn1c(SCC(=O)N(C)C)nc2ccccc2c1=O	-2%
Cc1ccc(NC(=O)Cc2c(C(=O)O)n(C)c3ccccc23)cc1F	-17%

Further entries.
SMILES | VDR inhibitor
O=C(NN1CCOCC1)C12CC3CC(CC(C3)C1)C2 | -22%
COc1ccc2cc(C(N)=O)/c(=N\NC(=O)c3ccccc3)oc2c1 | -6%
COc1ccc(C(=O)OCCNC(=O)c2c(Cl)nc3ccccn23)cc1 | -14%
Cc1ccc(S(=O)(=O)NC(CC(C)C)C(=O)Oc2ccc3c4c(c(=O)oc3c2)CCC4)cc1 (stereo unspecified) | 6%
C=C(C)Cc1c(C)nc(-c2ccccc2)[nH]c1=O | 9%
CC(Oc1ccccc1F)c1nnc(SCC(=O)c2c(N)n(C3CC3)c(=O)[nH]c2=O)o1 (stereo unspecified) | -1%
O=S(=O)(c1ccc(=S)[nH]c1)N1CCCCC1 | -16%
CCc1ccc2c(c1)C1(SC(NC(C)=O)=NN1C(C)=O)C(=O)N2C(C)C (stereo unspecified) | -1%
N#C/C(=C\C=C\c1ccccc1[N+](=O)[O-])c1nc(-c2ccc3c(c2)OCO3)cs1 | 8%
COc1ccc(Cc2nnc(SCC(=O)c3ccccc3)o2)cc1 | 9%
O=[N+]([O-])c1cccc(-c2ccc3nnc(SCc4ccccn4)n3n2)c1 | ?
Cn1c(N)c(C(=O)COC(=O)C2(c3ccc(Cl)cc3)CCCC2)c(=O)n(C)c1=O | -23%
C=C1Nc2ccccc2C(=O)N1c1ccc(C(=O)N2CCN(C(=O)c3ccco3)CC2)cc1 | 5%
CCCCC1=CC2=CC(=O)C(C)(OC(=O)CCc3ccccc3)C(=O)C2=CO1 (stereo unspecified) | -1%&13%
O=S(=O)(c1ccccc1)N1CCN=C1SCc1ccc(Cl)cc1 | -21%
CCC(=O)N(Cc1cc2cc(OC)ccc2[nH]c1=O)c1ccccc1C | ?
COc1cc(/C=C2\SC(N3CCCCC3)=NC2=O)cc(OC)c1OC | 13%
COc1ccc(C(=O)COC(=O)c2ccc(Cl)nc2)c(OC)c1 | -13%
CCOc1ccc(OCCOCCOc2c(Cl)cccc2Cl)cc1 | -3%
CCOc1ccc(C2CC(=O)NC(SCC(=O)OC)=C2C#N)cc1 (stereo unspecified) | 0%
CC(C)(C)c1ccc(-c2nc3cc(N)ccc3o2)cc1 | -9%
CCN(c1ccccc1)c1cc(C)nc2ncnn12 | -20%
CC(C)c1ccc(C2N=C(N)Nc3nc4ccccc4n32)cc1 (stereo unspecified) | 5%
CC(C)c1ccc(NC(=O)Cn2c(=O)oc3cccnc32)cc1 | -2%

Exported with the structure last: entries from further up
VDR inhibitor,mol
-1%,CCCCC(=O)Nc1c(-c2ccc(OC)c(OC)c2)c(=O)c2ccccc2n1C
-9%,CC1CCCCC1NS(=O)(=O)c1ccc2c(c1)CC(=O)N2C (stereo unspecified)
-21%,COc1ccc(S(=O)(=O)N2CCOCC2)cc1N=Nc1sc(N)nc1-c1ccccc1
17%,CSc1nc2c(c(=O)[nH]1)C(c1cccc(F)c1F)CC(=O)N2 (stereo unspecified)
?,COc1ccc(C(=O)NCC(C)NC(=O)c2ccc(OC)cc2)cc1 (stereo unspecified)
-11%,COc1ccc(OC)c(Nc2nc3nonc3nc2N2CCCC(C)C2)c1 (stereo unspecified)
-1%,CCc1ccc2c(c1)C1(SC(NC(C)=O)=NN1C(C)=O)C(=O)N2C(C)C (stereo unspecified)
